# From PubChem
# Autofluor counter: flagged as autofluorescent in microsphere protease counterscreen; compound autofluorescence counterscreen, microsphere flow cytometry; hits give high values; fluorescence intensity (concentration not given with the values); actives 3.1% (n = 360,000); AID 624483;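 active = at least 3 SD above the mean of all compounds, about 16000 in these data; inconclusive = too few beads counted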;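 note: 100 nL of 1 mM stock went into each well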
# PrP UTR inh: inhibition of PrP 5' UTR reporter expression | AID 488862 | actives 0.35% (n = 340,000) | inhibition, % (concentration not given with the values) | cell-based PrP 5' UTR mRNA reporter, plate reader;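 active = every replicate at 50% or more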;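 note: 0 = median of the neutral control wells; tested in H4 reporter cells; numbers are from one replicate; inactives centre near -14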
# ugtP null kill: kills S. aureus RN4220 lacking UgtP; S. aureus RN4220 ugtP deletion, OD600 growth, 16 h; some inactives read as strong as hits; AID 1259309; actives 0.54% (n = 330,000); growth inhibition, % (test concentration not listed);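 active = z-score under -3 and OD600 up to 0.15 on both plates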;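 note: plate controls were untreated wells for no effect and antibiotic for full effect; wells of about 80 µL received 100 nL stock; the first replicate is given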
# Sa RN4220 lethal: S. aureus RN4220 growth inhibition; OD600, 16 h; actives 0.33% (n = 330,000); inhibition, % (concentration not given with the values); AID 1259311;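 active = z-score of -3 or lower and OD600 up to 0.18 on both plates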;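 note: plate controls were untreated cells for no effect and reference antibiotic for full effect; stock transfer was 100 nL into about 80 µL; one replicate is shown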
# Mtb hypoxia inh: reduces hypoxia-regulated biosensor signal in M. tuberculosis | actives 0.1% (n = 300,000) | M. tuberculosis hypoxia-regulated fluorescent reporter, fluorescence | fluorescence inhibition, % (no concentration beside the values);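 active = 35 to 45% if threefold the growth effect, above 45% if 1.5-fold the growth effect; inactive = the rest, general growth blockers included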;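 note: wells of about 50 µL received 100 nL stock; 0% = vehicle wells and 100% = reference inhibitor wells; whole bacteria with a GFP reporter of the hypoxia response; strong numbers were not always called active; many hits fall short of the cut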
# BJeLR viability: kills HRASV12-expressing BJeLR cells | BJeLR (HRASV12) viability, CellTiter-Glo ATP luminescence, 48 h; reference of the scale not given here | inhibition, % (test concentration not listed) | actives 0.17% (n = 300,000) | AID 1554;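 active = replicate mean above 50%; inconclusive = above 50% but judged a plate artefact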;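 note: 50 nL library stock added to about 25 µL; numbers are from one replicate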
# Mtb hypoxia inh growth: also measured in Mtb hypoxia inh; calls as there; growth inhibition, %; measured here: M. tuberculosis growth (absorbance);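 0% = vehicle and 100% = reference antibiotic; read after six days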
# An asterisk follows results filed as active; ? = inconclusive; nt = no result given. Compounds as they come (roughly 4% active in at least one column).
SMILES,Autofluor counter,PrP UTR inh,ugtP null kill,Sa RN4220 lethal,Mtb hypoxia inh,Mtb hypoxia inh growth,BJeLR viability
COc1cc(OC)c(OC)cc1C=NNC(=O)C[n+]1ccccc1,nt,nt,3,2.5,6,4,nt
Cc1cc(C)c(S(=O)(=O)N=C2C=CC(=O)C(Cl)=C2)c(C)c1,nt,nt,20,8.0,2,4,nt
COc1cc(C=NNC(=O)c2cc(C)n(-c3ccc(F)cc3)c2C)cc(OC)c1O,nt,nt,6,3.8,4,3,nt
COc1cc(Cl)c(C)cc1NC(=O)CSc1sc2c(O)cc(=O)[nH]c2c1C#N,5079,-7,nt,nt,nt,nt,-2
Brc1ccc(C2CC(c3ccccc3)=Nc3ccccc3N2)cc1 (configuration not stated),2950,-108,-11,8.1,nt,nt,3
CCCCN1C(=O)C(=O)N(c2ccccc2)C1=S,2599,-93,3,4.2,3,6,0
CC(O)CNCc1ccc(-c2ccccc2)cc1 (configuration not stated),5592,-19,11,4.9,14,-1,-8
COc1ccc(CN(C(=O)c2ccc(CN3CCOCC3)o2)C(C(=O)NCC2CCCO2)c2ccc(F)cc2)cc1 (configuration not stated),3753,-14,3,2.7,2,2,-2
CCOC(=O)C1CCN(S(=O)(=O)c2cccc(-c3cn4cc(Cl)ccc4n3)c2)CC1,3514,-1,-11,9.0,nt,nt,-9
Cc1cccc(NC(=O)c2cc(NC(=O)c3ccccc3)ccc2N2CCCCC2)c1,5848,-16,-16,8.9,-12,-1,-7
COc1ccc(C(=O)OCC(=O)Nc2ncc([N+](=O)[O-])s2)cc1OC,8019,-29,5,10,2,1,nt
CCOC(=O)CC1c2ccccc2S(=O)(=O)N1c1ccccc1 (configuration not stated),nt,nt,-13,6.3,7,10,nt
CSCCC(NC(=O)c1ccccc1Cl)C(=O)NC1CCN(Cc2ccccc2)CC1 (configuration not stated),5235,4,-5,-1.4,-5,-2,13
COc1cccc(-n2c(=O)[nH]cc(C(=O)Nc3ccc4c(c3)OCCO4)c2=O)c1,5816,4,17,2.0,8,4,-20
O=C(Cn1nnc2ccccc2c1=O)Nc1cccc(S(=O)(=O)N2CCOCC2)c1,4734,-2,1,-4.1,-3,-3,-3
O=C(NN=Cc1ccncc1)c1ccccc1[N+](=O)[O-],nt,nt,6,3.2,1,11,nt
COCc1c(C(=O)NCC2COc3ccccc3O2)oc2ccccc12 (configuration not stated),3363,-27,-3,3.6,4,6,nt
CC(C)c1cc(C(=O)Nc2cccc(C(F)(F)F)c2)no1,4002,-20,-2,0.7,-5,5,-13
O=C(CN1C(=O)NC2(CCc3ccccc32)C1=O)c1ccccc1 (configuration not stated),?,3,4,4.5,5,-1,7
COc1cc(C(C(=O)NC2CCCCC2)N(C(=O)Cc2c[nH]c3ccccc23)c2ccccc2C)cc(OC)c1OC (configuration not stated),2433,-11,nt,nt,nt,nt,-18
COc1ccc(Cl)cc1NC(=O)CSc1nc(-c2ccccc2)cc(=O)[nH]1,nt,-15,0,-4.7,20,1,-6
CCC(C)NC(=O)C1CCN(S(=O)(=O)c2cccc3cccnc23)CC1 (configuration not stated),4049,-7,7,2.5,nt,nt,-1
Cc1cc(C)cc(NC(=O)Nc2ccc(S(=O)(=O)Nc3cc(C)on3)cc2)c1,3641,-22,-5,1.9,1,14,-1
FC(F)(F)c1cccc(N2CCN(c3ccc4nnc(-c5ccccc5)n4n3)CC2)c1,11533,nt,-19,1.4,-6,7,-2

# 13 compounds out of the list, arranged by number of heavy atoms, lowest first:
SMILES,Autofluor counter,PrP UTR inh,ugtP null kill,Sa RN4220 lethal,Mtb hypoxia inh,Mtb hypoxia inh growth,BJeLR viability
CC(O)CNCc1ccc(-c2ccccc2)cc1 (configuration not stated),5592,-19,11,4.9,14,-1,-8
O=C(NN=Cc1ccncc1)c1ccccc1[N+](=O)[O-],nt,nt,6,3.2,1,11,nt
CC(C)c1cc(C(=O)Nc2cccc(C(F)(F)F)c2)no1,4002,-20,-2,0.7,-5,5,-13
CCOC(=O)CC1c2ccccc2S(=O)(=O)N1c1ccccc1 (configuration not stated),nt,nt,-13,6.3,7,10,nt
O=C(CN1C(=O)NC2(CCc3ccccc32)C1=O)c1ccccc1 (configuration not stated),?,3,4,4.5,5,-1,7
COc1ccc(C(=O)OCC(=O)Nc2ncc([N+](=O)[O-])s2)cc1OC,8019,-29,5,10,2,1,nt
COCc1c(C(=O)NCC2COc3ccccc3O2)oc2ccccc12 (configuration not stated),3363,-27,-3,3.6,4,6,nt
COc1ccc(Cl)cc1NC(=O)CSc1nc(-c2ccccc2)cc(=O)[nH]1,nt,-15,0,-4.7,20,1,-6
COc1cc(Cl)c(C)cc1NC(=O)CSc1sc2c(O)cc(=O)[nH]c2c1C#N,5079,-7,nt,nt,nt,nt,-2
COc1cccc(-n2c(=O)[nH]cc(C(=O)Nc3ccc4c(c3)OCCO4)c2=O)c1,5816,4,17,2.0,8,4,-20
CCOC(=O)C1CCN(S(=O)(=O)c2cccc(-c3cn4cc(Cl)ccc4n3)c2)CC1,3514,-1,-11,9.0,nt,nt,-9
CSCCC(NC(=O)c1ccccc1Cl)C(=O)NC1CCN(Cc2ccccc2)CC1 (configuration not stated),5235,4,-5,-1.4,-5,-2,13
COc1cc(C(C(=O)NC2CCCCC2)N(C(=O)Cc2c[nH]c3ccccc23)c2ccccc2C)cc(OC)c1OC (configuration not stated),2433,-11,nt,nt,nt,nt,-18

# Going on with the list.
SMILES,Autofluor counter,PrP UTR inh,ugtP null kill,Sa RN4220 lethal,Mtb hypoxia inh,Mtb hypoxia inh growth,BJeLR viability
CCC(C)Sc1ccc(-c2nc3ccc(C)cn3c2NCc2ccccc2)cc1OC (configuration not stated),2939,-12,nt,nt,nt,nt,4
O=C(COC(=O)c1cccnc1)c1ccc(Cl)cc1,19665*,-19,0,0.9,3,-1,0
COc1cc2cc(CN(CCCO)S(=O)(=O)c3ccccc3Cl)c(=O)[nH]c2cc1OC,10480,-1,3,4.4,5,13,1
COc1cccc2sc(=NC(=O)CS(=O)(=O)c3ccc(Cl)cc3)n(C)c12,6799,-14,6,15,13,-8,13
COc1ccc(C(=O)NNC2=CC(=O)CC(C)(C)C2)cc1,7221,-5,6,4.9,0,7,6
CC1CC(=O)c2cnc(Nc3cccc(C(F)(F)F)c3)nc2C1 (configuration not stated),2888,2,-13,4.5,nt,nt,nt
COC(=O)c1ccc(N2CCS(=O)(=O)CC2)cc1,3424,-12,6,4.3,10,10,-4
O=C(CSc1nnnn1-c1cccnc1)Nc1cccc(Cl)c1,5416,-7,-13,6.7,7,4,-4
O=C(COC(=O)c1ccc([N+](=O)[O-])cc1Cl)NCc1ccco1,?,-6,2,20,17,20,nt
COc1ccc(CCC(=O)NCCS(=O)(=O)N2CCN(c3ccc(F)cc3)CC2)cc1,5550,-13,-3,3.1,5,-4,6
Cc1cc(NC(=O)CSCC(=O)N(c2ccc(F)cc2)C(C(=O)NC2CCCCC2)c2ccc(O)c(O)c2)no1 (configuration not stated),1981,-2,2,0.4,4,0,-7
CCOC(=O)c1ccccc1N1C(=O)CSC1=S,7516,-31,3,5.2,-6,5,-7
CCCN1CN(Cc2ccco2)c2nc3ccccc3n2C1,18478*,-20,2,-2.0,8,9,9
Cc1cc(C)c(C)c(OCCCCN2CCCCC2)c1,3809,-1,1,3.3,6,-1,3
Cc1ccc(NC(=O)CN2CCN(Cc3ccccc3)CC2)cc1F,4123,-25,8,2.5,10,8,6
Cc1nc(-c2cccc(Br)c2)ccc1C(=O)O,4325,-8,7,2.6,11,4,-7
O=C(NC1CCCCC1)c1ccc(Cn2cc(Cl)cn2)cc1,3636,-11,5,2.4,10,19,-1
Cc1ccc(OCc2nnc(SCC(=O)O)n2-c2ccccc2)cc1,3530,-13,8,1.8,-2,-2,-4
O=C(NCCc1ccccc1)c1ccc(=O)oc1,3646,-11,4,3.4,5,3,0
COc1cc(/C=N/NC(=O)c2ccc(COc3cc(C)ccc3C(C)C)cc2)cc(OC)c1O,3199,7,nt,nt,nt,nt,-1
COc1ccc(C(=O)Cc2cnn(-c3ccccc3)c2)c(O)c1,2767,-63,4,-5.3,11,10,-4
O=C1CCCC2=C1C(c1ccc3c(c1)OCO3)c1c([nH]n(-c3ccccc3)c1=O)N2 (configuration not stated),15767,-50,0,-1.5,-3,4,-2
Cc1ccc(S(=O)(=O)N2CCCC2C(=O)OCC(=O)Nc2ccc3c(c2)OCO3)cc1 (configuration not stated),4619,-14,-4,2.5,6,16,5
Cc1ccc(CS(=O)Cc2ccc(C(=O)NCc3ccccc3Cl)o2)cc1 (configuration not stated),5169,-24,11,1.3,5,7,6
Cc1nc2ncnn2c(C)c1CCC(=O)N1CCN(Cc2ccccc2)CC1,3906,-7,3,7.5,7,3,-7
C/C(=N\NC(=O)C(C)Oc1ccc([N+](=O)[O-])cc1)c1ccccn1 (configuration not stated),24747*,32,nt,nt,nt,nt,29
CCOc1cc(/C=N/Nc2nncc(-c3ccccc3)n2)ccc1O,4408,-17,nt,nt,nt,nt,5
CCN(CC)CCNC(=O)C(=O)NCC1OCCN1S(=O)(=O)c1ccc2c(c1)OCCO2 (configuration not stated),2147,-25,7,-0.3,4,2,-7
O=[N+]([O-])c1ccccc1OCCCN1CCOCC1,23944*,-20,7,1.3,3,0,-14
COC(=O)C1=C(c2ccccc2)CC2CCC1N2C(=O)NCCO (configuration not stated),nt,nt,1,5.9,5,-1,nt
Cc1csc(NC(=O)CSc2nnc(-c3ccccc3)o2)n1,2350,-46,-3,4.2,nt,nt,-1
COc1ccccc1NC(=O)CCN1CCCCCC1,11405,-14,7,2.1,5,0,5
CC(=NNS(=O)(=O)c1cc(C)ccc1C)c1ccc2c(c1)OCO2,nt,nt,-6,-3.1,-10,6,nt
COc1ccc(N2CCN(C(=O)c3cccc(S(=O)(=O)N4CCOCC4)c3)CC2)cc1,nt,nt,2,-0.3,5,1,nt
CCN(CC)CCn1c(NC(=O)c2ccccc2O)nc2ccccc21,3247,-24,0,1.1,-1,1,-31
COc1cccc(CNS(=O)(=O)c2ccc3c(c2)N(C)CCO3)c1,5959,-26,3,2.6,9,6,1
CC(C)c1nnc(SCC(=O)N2CCOCC2)n1C,3240,14,9,4.4,6,0,3
COC(=O)c1ccc(-n2nnnc2SCC(=O)NCc2cccc(C(=O)O)c2)cc1,8946,-11,2,3.5,-1,3,nt
COC(=O)c1ccc(OC)c(CSc2nnc(COc3cccc(C)c3)o2)c1,?,-20,25,7.4,2,10,-2
Cn1c(CNC(=O)Nc2ccccc2)nnc1SCc1ccccc1,4667,-13,0,-6.4,nt,nt,8
Cc1cnc(NC(=O)c2c(Cl)cnn2C)s1,5918,-15,1,2.2,5,9,4
Cc1cc2cc(CNC(=O)c3ccco3)ccc2n1C,4270,-14,-8,-8.8,-6,10,9
O=C(COC(=O)c1cnc(Cl)c(Cl)c1)NC1CCCCCC1,8390,-4,2,3.4,-4,-1,nt
CC(=O)Nc1ccc(OC(=O)c2ccco2)cc1,8801,-17,3,3.5,3,4,0
Cn1c(CNC(=O)CCNC(=O)c2cccc(F)c2)cc(=O)n(C)c1=O,5305,-13,-1,-2.7,-3,1,1
COc1ccc(CNC(=O)C/C(C)=N/NC(=O)Cc2ccc(OC)cc2)cc1,2536,-1,nt,nt,nt,nt,2
CC(C)Cn1c(=S)[nH]c2cc(C(=O)NCc3ccccc3F)ccc2c1=O,3109,-8,2,3.4,8,-1,nt
CCc1cc(=O)oc2cc(C)c3c(C)coc3c12,8755,-4,0,7.0,9,7,5
O=[N+]([O-])c1cc(Cl)ccc1NCCNS(=O)(=O)c1ccccc1,7575,-63,nt,nt,nt,nt,10
CCCCC(=O)Nc1ccc2c(c1)nc(CN1CCN(C(=O)OCC)CC1)n2C,3775,-25,0,1.7,-1,0,-8
O=C(NNC(=O)c1cc2ccccc2cc1O)Nc1ccc(Br)cc1,5781,-18,3,-1.1,4,-4,-6
Cc1ccc(C(=O)Oc2coc(CSc3nnc(NC(=O)C4CC4)s3)cc2=O)cc1C,1984,6,8,2.7,-1,3,nt
O=c1ccnc(SCCC(F)=C(F)F)[nH]1,3401,-10,9,8.2,11,0,4
